Screening data from PubChem BioAssay.
RecA splice inh – inhibitors of M. tuberculosis RecA intein splicing | P9WHJ3 | cell-free RecA intein splicing, fluorescence | inhibition, %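 (about 9 µM by stock and volumes)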 | hit rate 0.75% among 290,000; in the data active = inhibition above about 30%; inconclusive = no clear call, values can overlap the other calls;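 also: 0% = vehicle wells and 100% = reference inhibitor control wells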
Target sequence (P9WHJ3 whole entry, looked up, canonical isoform): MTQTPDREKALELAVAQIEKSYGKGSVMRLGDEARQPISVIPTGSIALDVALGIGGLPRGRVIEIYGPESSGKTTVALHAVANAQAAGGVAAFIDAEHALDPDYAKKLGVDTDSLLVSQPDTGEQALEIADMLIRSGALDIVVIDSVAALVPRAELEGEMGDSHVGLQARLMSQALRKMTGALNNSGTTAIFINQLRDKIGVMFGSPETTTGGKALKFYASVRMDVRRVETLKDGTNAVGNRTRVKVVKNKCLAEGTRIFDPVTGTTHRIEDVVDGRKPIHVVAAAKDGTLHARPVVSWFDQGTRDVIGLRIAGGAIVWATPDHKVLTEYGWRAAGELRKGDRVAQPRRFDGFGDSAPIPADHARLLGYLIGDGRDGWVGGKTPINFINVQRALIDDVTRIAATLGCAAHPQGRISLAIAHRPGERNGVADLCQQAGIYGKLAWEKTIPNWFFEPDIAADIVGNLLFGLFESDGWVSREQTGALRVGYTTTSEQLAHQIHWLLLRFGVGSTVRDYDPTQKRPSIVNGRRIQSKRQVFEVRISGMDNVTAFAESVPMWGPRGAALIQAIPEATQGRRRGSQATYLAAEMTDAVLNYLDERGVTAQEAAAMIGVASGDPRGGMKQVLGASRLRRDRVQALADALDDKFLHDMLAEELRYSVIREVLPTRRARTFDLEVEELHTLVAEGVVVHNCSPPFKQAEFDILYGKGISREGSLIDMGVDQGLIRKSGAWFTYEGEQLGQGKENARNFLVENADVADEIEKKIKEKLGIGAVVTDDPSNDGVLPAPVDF
Mtb betalactam – beta-lactam sensitization of Mtb H37Rv | M. tuberculosis H37Rv growth with meropenem, percent inhibition; hits of this screen are not shown here | inhibition, % at 25 µM | hit rate 0.27% among 330,000 | AID 434955;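 active = about 74% or more and at least 40 points above the plate without the antibiotic, then above 30% in a dose series; inconclusive = first-round hits that could not be retested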;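 also: growth measured after seven days incubation then overnight dye step; 0% = bacteria only wells and 100% = bacteria with antibiotic; twin plates without the antibiotic show which effects depend on it; some results filed as inactive read as strong as hits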
YopH PTP inh – inhibitors of Yersinia enterocolitica YopH tyrosine phosphatase. fluorescence Ex485/Em525. inhibition, %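 (about 10 µM by stock and volumes)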. hit rate 0.16% among 140,000. AID 898;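 active = inhibition of 50% or more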;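 also: controls were vehicle for no effect and minimum signal wells for full effect; inactives centre near -20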
Mtb H37Rv – M. tuberculosis H37Rv growth inhibitors, H37Rv strain (AID 1626). hit rate 0.95% among 220,000. inhibition, % at 10 µM, or IC50 in µM where a hit was titrated. M. tuberculosis H37Rv growth inhibition; higher % means a stronger effect;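 active = confirmed in a dose series; inconclusive = inhibition above 80% but not taken into the dose series; inactive = below 80% or under 30% at every dose of the series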;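 also: bacteria incubated seven days before Alamar blue readout; 0% = bacteria only wells and 100% = bacteria with antibiotic wells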
Arbovirus anti – blocks arbovirus infection. arbovirus infection cell-based antiviral screen. inhibition, % at 10 µM. hit rate 0.37% among 200,000;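 active = inhibition from about 30%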;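 also: bluetongue infection of BSR cells; cell survival read as ATP light after 72 h; 0% = infected wells without compound and 100% = uninfected wells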
Arbovirus anti repeat – also measured in Arbovirus anti; calls as there; inhibition, %; measured here: 10K subset replicate screen; many hits read low in the repeat;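 first of two repeat runs on a subset; 0% = infected and 100% = uninfected wells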
The depositor's hits bear a star; u = inconclusive; x = not tested or not shown.

SMILES	RecA splice inh	Mtb betalactam	YopH PTP inh	Mtb H37Rv	Arbovirus anti	others
C=CCN(c1ccccc1C(=O)O)S(=O)(=O)c1ccc(NC(=O)OC)cc1	-0.6	0	x	0%	x
CC1=C(C(=O)OC(C)C)C(c2cn(-c3ccccc3)nc2-c2cccs2)NC(=O)N1 (centres undefined)	8.4	2	-16	6%	6
O=c1[nH]c(C(F)(F)F)nc2ccccc12	-5.9	12	-55	12%	-5
CCOC(=O)c1c(-c2ccc(C)cc2)cn2ccccc12	6.4	13	-4	9%	-1
O=C(CSc1nnc(Cc2ccccc2)o1)N1CCOCC1	-2.0	-1	-42	-1%	-6
O=C(N/N=C/c1ccc(Br)s1)c1c[nH]c2ccccc12	1.1	u	-19	u	-9
COc1ccc(-c2ccc(-c3noc(-c4cccs4)n3)c(OC)n2)cc1	-5.5	58	-13	6%	1
O=C(NCc1ccc2c(c1)OCO2)C1CC(c2ccccc2O)=NO1 (centres undefined)	-1.2	2	-14	34%	0
CCn1c(Cn2nnc(-c3ccccc3)n2)nnc1SCC(=O)Nc1ccccc1	-4.2	1	-39	-7%	2
Cc1ccc(OCC(=O)NCc2n[nH]c(=O)c3ccccc23)cc1	-0.2	3	x	x	x
CCOC(=O)c1cc(C)nc(N2CCCCC2)c1C#N	0.4	-1	x	-7%	x
CC(=O)N1c2ccc(S(=O)(=O)N3CCCC(C(=O)Nc4ccc(F)cc4)C3)cc2CC1C (centres undefined)	0.7	-8	x	x	x
COc1ccc(NC(=O)CCCSc2nc(-c3ccco3)cc(C(F)(F)F)n2)cc1OC	-2.1	9	-20	2%	1
CCOC(=O)c1sc(NC(=O)c2ccc3nc[nH]c3c2)nc1C	-0.2	78	x	x	x
COc1ccc(Cn2c(O)cc(=O)[nH]c2=O)cc1	-0.6	3	-29	-8%	-5
Cc1cc(=O)n(CNC(=O)c2ccccc2)c(=S)[nH]1	0.9	-2	-7	-7%	7
COc1ccc(C2CC(=O)C=C(NCc3ccc4c(c3)OCO4)C2)cc1 (centres undefined)	-1.0	4	x	-2%	x
COc1ccc(C(C#N)N2CCCCCC2)cc1OC (centres undefined)	-3.4	-1	1	-14%	5
Cc1noc(C)c1CSc1nc2ccccc2[nH]1	0.9	-6	-38	0%	0
O=C(Nc1cc(-c2ccccc2)sc1C(=O)O)c1cccc(F)c1	1.2	59	x	x	x
FC(F)(F)c1nnc2ccc(NCc3cccnc3)nn12	-2.7	3	x	-1%	3
Cc1cnc(C(=O)OCC(=O)NC2CCCCCC2)cn1	-1.1	-8	x	1%	5
Cn1c(=O)c2c(SCC(=O)N3CCCCC3)nc(-c3ccccc3F)nc2n(C)c1=O	-7.4	-3	x	x	x
COc1ccc(N2CC(C)Cn3c2nc2c3c(=O)n(CCN3CCOCC3)c(=O)n2C)cc1 (centres undefined)	-0.6	-5	2	-7%	4
O=S(=O)(NCc1csc(-c2cccnc2)n1)c1ccc2c(c1)OCCO2	0.0	5	-39	-6%	17
Cc1ccc(O)c(C(=O)c2cc(C(=O)NCCC(C)C)c(=O)n(CCC(C)C)c2)c1	-1.8	5	x	7%	-5
O=C(CCc1c[nH]c2ccccc12)NCCc1ccc2c(c1)OCCO2	5.6	0	x	x	x
N#C/C(=C\c1cccc(Cl)c1)C(=O)c1ccccc1	-0.5	8	x	-10%	x
Cc1ccc(Cn2ccc(NC(=O)c3cc(C)on3)n2)cc1	1.3	5	-13	-4%	-5
O=C(NCCOc1ccccc1)C(=O)c1c[nH]c2ccccc12	3.3	5	x	7%	x
CCC(C)NC(=O)c1c(N)n(/N=C/c2cccnc2)c2nc3ccccc3nc12 (centres undefined)	-13	29	-38	7%	-7
CCCCCN(C(=O)CCC(=O)OC(C)C(=O)Nc1cccc(C#N)c1)c1c(N)n(CCCC)c(=O)[nH]c1=O (centres undefined)	-1.1	-12	x	x	x
CCN(CC)c1ccc(NC(=O)C(C)C)cc1	-5.8	0	-17	-7%	-3
O=C(CCCN1C(=O)C2CCCCN2C1=O)N1CCN(c2ccc([N+](=O)[O-])cc2)CC1 (centres undefined)	1.4	-3	-26	-4%	8
COCCN1CCN(C(=O)c2cc(COc3ccc(F)cc3Cl)on2)CC1	-1.1	2	x	x	x
COc1ccc(CCNC(=O)CC(Cc2ccc(C)cc2)C(=O)O)cc1OC (centres undefined)	-1.8	0	x	x	x
Cc1oc2c(C)c3oc(=O)c4c(c3cc2c1C)CCCC4	-3.0	6	-21	4%	3
Cc1cc(C)nc(S/C=C/C(=O)c2ccccc2)n1	-2.2	76	x	5%	x
Clc1ccc(CN2C3=NCCCN3c3ccccc32)cc1	4.6	0	-31	x	-22
COc1ccc(C(=O)NC(Cc2c[nH]c3ccccc23)C(=O)O)cc1 (centres undefined)	-1.5	1	x	x	x
Cc1ccc(S(=O)(=O)N2CCN(C(=O)C(F)(F)F)C2c2ccc(N(C)C)cc2)cc1 (centres undefined)	0.2	-5	x	x	x
COc1ccc(-c2noc(=O)n2Cc2ccccc2F)cc1	2.8	3	x	x	x
Cc1cc(C)c(NC(=S)N(CCN(C)C)Cc2cccs2)c(C)c1	-3.4	5	x	7%	-5
COc1ccc(C(=O)N2CCN(C(=O)CC(C)C)CC2)cc1OC	0.1	-13	-34	1%	7
Fc1ccc(CN2CCCN(C(=S)Nc3ccc(F)cc3)CC2)cc1	0.3	-12	x	-8%	x
CCOC(=O)c1c(C)n(CC(COC(C)=O)OC(C)=O)c2ccc(OC(C)=O)cc12 (centres undefined)	-1.7	-16	-50	-7%	-2
O=C(C1=C[C@@H](c2csc3ccccc23)C[C@@H](OCc2ccc(CO)cc2)O1)N1CCN(Cc2ccccc2)CC1	20	7	x	12%	-10
CC(=O)N=c1sccn1CC(=O)c1ccc([N+](=O)[O-])cc1	-1.9	4	-35	4%	5

Reprinted from the part before: 3 entries, followed by the next part.
SMILES	RecA splice inh	Mtb betalactam	YopH PTP inh	Mtb H37Rv	Arbovirus anti	others
CCOC(=O)c1c(C)n(CC(COC(C)=O)OC(C)=O)c2ccc(OC(C)=O)cc12 (centres undefined)	-1.7	-16	-50	-7%	-2
O=C(C1=C[C@@H](c2csc3ccccc23)C[C@@H](OCc2ccc(CO)cc2)O1)N1CCN(Cc2ccccc2)CC1	20	7	x	12%	-10
CC(=O)N=c1sccn1CC(=O)c1ccc([N+](=O)[O-])cc1	-1.9	4	-35	4%	5
Cc1nnc(SCc2nnc(-c3ccccc3)o2)n(N)c1=O	2.1	55	-29	24%	-1
Fc1ccc(Br)cc1C1C=C(c2cccnc2)Nc2ncnn21 (centres undefined)	-261	-3	x	2%	-8	Arbovirus anti repeat=-8
COc1ccc(OCC(O)CNC(=O)c2c(-c3ccccc3)noc2C)cc1 (centres undefined)	9.3	-3	x	-16%	x
COc1ccccc1NC(=O)CCC(=O)Nc1cc(OC)c(NC(=O)c2cccs2)cc1OC	-0.2	9	x	x	x
CCn1c(N2CCN(C(=S)NCC(C)C)CC2)nc2ccccc21	-1.3	2	-21	4%	2
Cn1c(CNC(=O)CNC(=O)c2ccc(C(C)(C)C)cc2)cc(=O)n(C)c1=O	-1.0	4	x	x	x
CN1C(=O)c2oc3ccccc3c(=O)c2C1c1ccccn1 (centres undefined)	-1.2	4	-18	-9%	-2
Cc1ccc(CSc2nnc(SCC(=O)N/N=C/c3c(C)nn(-c4ccccc4)c3C)s2)cc1	3.8	5	-9	20%	-10
COC(=O)Cc1ccc(NC(=S)NCc2ccc(S(N)(=O)=O)cc2)cc1	-0.8	-5	x	x	x
N#Cc1sc2nc(N3CCCCC3)c3c(c2c1N)CCCC3	4.3	-12	-29	-15%	-35
CCCCCNC(=O)C1CC(=O)OC12CCCCC2 (centres undefined)	0.6	-2	x	-3%	-3
CCn1ccc(C(=O)Nc2ccc(N(C)C(C)=O)cc2)n1	-5.7	0	-32	-6%	-2
COc1ccc(N(CC(=O)NCc2ccccc2)S(C)(=O)=O)cc1	0.5	-1	-26	-7%	10
CNc1nc(N)c(C(=O)C(C)(C)C)s1	-0.6	-3	-36	-6%	5
Cc1ccc(-c2noc(CN3C(C)CCCC3C)n2)cc1 (centres undefined)	1.5	3	-17	7%	0	Arbovirus anti repeat=2
COc1ccc([N+](=O)[O-])cc1NC(=O)COC(=O)c1ccccc1C(=O)c1ccccc1	-2.2	3	-31	1%	1
Cc1ccc(N=C2NC(=O)/C(=C/c3cccnc3)S2)cc1C	2.1	-3	x	3%	x
CCOc1ccc(CSC(=N)N)cc1	-0.4	5	-14	66%	2
CCC(=O)Nc1nnc(-c2cccs2)s1	-1.6	-2	x	2%	0
CCc1cccc(Nc2c([N+](=O)[O-])cc(C(=O)N3CC(=O)Nc4ccccc43)cc2[N+](=O)[O-])c1	1.6	-2	-23	x	2
CCCN=Cc1c(CCC)[nH]n(-c2nc3ccccc3s2)c1=O	2.3	15	-120	2%	-2
Cn1c(SCC(=O)NC2CCCC2)nnc1-c1ccc(S(=O)(=O)N2CCOCC2)cc1	-3.3	-3	-26	-1%	-3
Cc1ccc(N(CC(O)CN2CCCCC2)S(=O)(=O)c2ccc(C)cc2)cc1 (centres undefined)	-0.5	-4	x	x	x
O=C(NNC(=O)c1cc(-c2ccccc2)n(-c2ccccc2)n1)c1cccc([N+](=O)[O-])c1	15	13	-14	u	-8
COCC(=O)Nc1nc(-c2ccccc2)c(C)s1	-1.0	-15	-32	-4%	1
CC1=NN(C(=O)c2ccco2)C(O)(c2ccccc2)C1 (centres undefined)	0.6	-3	x	-2%	x
O=C(CN(Cc1cccs1)C(=O)CNS(=O)(=O)c1ccccc1)NCc1ccco1	-7.0	x	-151	-1%	0
CCOn1c(=O)c(-c2cccc(Br)c2)[n+]([O-])c2ccccc21	-5.5	-2	x	x	x
Cc1ccc(S(=O)(=O)/N=C2/NC(=O)/C(=C/c3cc([N+](=O)[O-])ccc3O)S2)cc1	-3.3	-5	x	x	x
CC(=O)Oc1ccc(N(C(C)=O)S(=O)(=O)c2ccc(C)c([N+](=O)[O-])c2)cc1	-2.2	1	-15	-5%	1
O=C(CNC(=O)c1ccccc1F)OCCOc1cccc(Cl)c1	2.0	0	x	x	x
O=C(NCC1CCCO1)c1cccc(S(=O)(=O)N(Cc2ccccc2)c2ccccc2)c1 (centres undefined)	5.2	-13	x	x	x
CCOC(=O)c1c(C)oc(C)c(C(=O)OCC)c1=O	-1.0	-6	x	-4%	x
Cn1c(NCCN2CCCCC2)cc(=O)n(C)c1=O	1.4	-5	-26	-3%	3
COc1ccc(C(NC(=O)C(C)C)c2ccc3cccnc3c2O)cc1 (centres undefined)	-2.3	-1	x	x	x
Cc1cc(=O)oc2cc(OCC(=O)Nc3c(Cl)cccc3C(F)(F)F)ccc12	0.4	-9	x	x	x

A run of entries of the results above:
SMILES	RecA splice inh	Mtb betalactam	YopH PTP inh	Mtb H37Rv	Arbovirus anti	others
O=C(CNC(=O)c1ccccc1F)OCCOc1cccc(Cl)c1	2.0	0	x	x	x
O=C(NCC1CCCO1)c1cccc(S(=O)(=O)N(Cc2ccccc2)c2ccccc2)c1 (centres undefined)	5.2	-13	x	x	x
CCOC(=O)c1c(C)oc(C)c(C(=O)OCC)c1=O	-1.0	-6	x	-4%	x
Cn1c(NCCN2CCCCC2)cc(=O)n(C)c1=O	1.4	-5	-26	-3%	3
COc1ccc(C(NC(=O)C(C)C)c2ccc3cccnc3c2O)cc1 (centres undefined)	-2.3	-1	x	x	x
Cc1cc(=O)oc2cc(OCC(=O)Nc3c(Cl)cccc3C(F)(F)F)ccc12	0.4	-9	x	x	x

Returning to the listing; the 4 compounds before the break are reprinted first.
SMILES	RecA splice inh	Mtb betalactam	YopH PTP inh	Mtb H37Rv	Arbovirus anti	others
CCOC(=O)c1c(C)oc(C)c(C(=O)OCC)c1=O	-1.0	-6	x	-4%	x
Cn1c(NCCN2CCCCC2)cc(=O)n(C)c1=O	1.4	-5	-26	-3%	3
COc1ccc(C(NC(=O)C(C)C)c2ccc3cccnc3c2O)cc1 (centres undefined)	-2.3	-1	x	x	x
Cc1cc(=O)oc2cc(OCC(=O)Nc3c(Cl)cccc3C(F)(F)F)ccc12	0.4	-9	x	x	x
CCOC(=O)c1ccc(N=C(C)c2c(O)[nH]c(=O)[nH]c2=O)cc1	x	88	x	>100µM*	x
O=C(COC(=O)c1cc([N+](=O)[O-])ccc1N1CCOCC1)c1ccc(OC(F)F)cc1OC(F)F	1.7	-7	x	x	x
COc1ccc(/C=C/C(=O)C23CC4CC(CC(C4)C2)C3)cc1CN1CCOCC1	1.8	9	x	14%	3
Cc1ccc2c(c1)CCCN2C(=O)c1cc2ccccc2oc1=O	-0.8	x	-12	1%	-2
Cc1cccc(OC(C)C(=O)NC2CCS(=O)(=O)C2)c1C (centres undefined)	-3.8	6	x	x	x

Not all compounds are listed, so the mix of outcomes need not match the whole.
